gsp ag – qHTS for Agonist of gsp, the Etiologic Mutation Responsible for Fibrous Dysplasia/McCune-Albright Syndrome: qHTS; gsp mutant cells, cAMP HTRF, 30 min; control for the full effect not named in the record; Potency, µM (top dose mostly 76.9 µM), inactives show at the highest dose activation (cAMP increase), actives largely listed as activators; 340,000 compounds, 0.13% hits; AID 624287, 2012; active = well fitted activation curve with a large enough effect; inconclusive = small, poorly fitted or top-dose-only effect, or another doubt; inactive = no such curve, though single readings can be large or run the other way; cell line not stated here;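 note: phosphodiesterase inhibitor Ro 20-1724 added with compounds to block cAMP breakdown; potency is the fitted concentration of half-maximal effect; nearly all actives have a fitted effect of over 60% in size; about a fifth of the inactives were tested at one dose only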
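Cells in DMEM/10% FBS with G418 were pretreated with compounds in DMSO plus […] (300 uM stock) for 30 min at 37C. cAMP was measured by HTRF (cAMP-d2 plus anti-cAMP antibody-K) after 30 min at room temperature.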
ClpP mod – qHTS Assay for Activators of ClpP | ATP-dependent Clp protease proteolytic subunit (Bacillus subtilis (strain 168)), P80244 | purified B. subtilis ClpP, FRET peptide cleavage, 20 min | Potency, µM (top dose mostly 57.5 µM), inactives show top-dose activity change, negative = active | 340,000 compounds, 1.9% hits; active = well fitted falling curve with a large enough effect; inconclusive = small, poorly fitted or top-dose-only effect; inactive = no such curve, though single readings can be large or run the other way; note: potency is the fitted concentration of half-maximal effect; the source files actives as falling curves though it sought activators and does not explain the sign; nearly all actives have a fitted effect of over 65% in size; many hits overshoot -100%
Target sequence (P80244 whole entry, looked up): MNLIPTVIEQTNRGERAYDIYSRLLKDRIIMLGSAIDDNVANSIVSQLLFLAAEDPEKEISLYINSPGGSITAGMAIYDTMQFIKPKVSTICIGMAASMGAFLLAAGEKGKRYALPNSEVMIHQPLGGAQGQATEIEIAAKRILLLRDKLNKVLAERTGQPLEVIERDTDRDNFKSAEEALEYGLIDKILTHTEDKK
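FRET quenching reversal measured ClpP activation: 10 microg/mL B. subtilis ClpP at pH 8 with the FRET-FV decapeptide, read at 430 nm after 320 nm excitation. The 20-min minus 0-min signal was scaled between DMSO/no-enzyme wells and ADEP (5.8 microM final).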
Sfp inh – qHTS Assay for Inhibitors of Bacillus subtilis Sfp phosphopantetheinyl transferase (PPTase); 4'-phosphopantetheinyl transferase ffp (Bacillus subtilis), Q9F4F7; Biochemical Sfp PPTase activity, qHTS; Potency, µM, for inactives: max response, negative = inhibition, hits mostly inhibitors; 310,000 compounds, 3.5% hits; active = well fitted inhibition curve with a large enough effect; inconclusive = small, poorly fitted or top-dose-only effect, or another doubt; inactive = no such curve, though single readings can be large or run the other way;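 note: the enzyme is Sfp with the accession as filed and its product quenches rhodamine fluorescence; potency is the fitted concentration of half-maximal effect; 0% = enzyme reaction without inhibitor and -100% = no enzyme wells; top concentration of the series not given in the record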
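Step 1, compound plus 15 nM Sfp-PPTase, 15 min, room temperature. Step 2, add rhodamine-CoA (5 uM) and BHQ-2-YbbR (12.5 uM). Step 3, read 525/598 nm fluorescence at 0 and 30 min.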
gsp antagonist – qHTS for Antagonists of gsp, the Etiologic Mutation Responsible for Fibrous Dysplasia/McCune-Albright Syndrome: qHTS. gsp-mutant cells, cAMP HTRF, 30 min; control for the full effect not named in the record. Potency, µM (highest dose often 76.9 µM), inactives show at the top dose activity change, negative = inhibition, hits mostly inhibitors. 340,000 compounds, 0.4% hits. AID 624288, 2012; active = falling curve of any shape with a large fitted effect; inconclusive = falling curve, mostly with a smaller effect; inactive = flat or rising curve; cell line not stated here;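 note: intracellular cAMP measured with PDE inhibitor Ro 20-1724 present during compound exposure; potency is the fitted concentration of half-maximal effect; % is set by controls: 0 for no effect and ±100 for the full control effect; nearly all actives have a fitted effect of over 65% in size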
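HTRF cAMP measurement after 30 min RT detection following 30 min, 37C compound treatment alongside […] (added as 300 uM solution) in G418-selected cells seeded at 2000/well and grown 16–24 h.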
D2 PAM – Beta-Arrestin HTS for Positive Allosteric Modulators of the Human D2 Dopamine Receptor: Potentiators. D(2) dopamine receptor (Homo sapiens), P14416. DiscoveRx D2 beta-arrestin cells, luminescence, 90 min; 100% = 57 uM dopamine signal. potentiation, % (test concentration not listed). 360,000 compounds, 0.23% hits; active = potentiation of 50% or more; inconclusive = 30% to 50%; inactive = 30% or less;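 note: compound concentration not given in the record; tested on top of an EC20 dose of dopamine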
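PathHunter D2 cells, attached overnight at 37 deg C, received compound in DMSO plus dopamine at EC20 (50 nM final) for 90 min at 37 deg C. Beta-arrestin recruitment was read as luminescence after 1 h with detection reagent at ambient temperature.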
Menin-MLL FL inh – qHTS Assay for Inhibitors Targeting the Menin-MLL Interaction in MLL Related Leukemias: Competition With Fluorescein Labeled MLL-derived Peptide | FP activity change, % at 61.4 µM | 290,000 tested, under 10 active | AID 1766, 2009 | Fluorescence polarization, fluorescein-MLL peptide displacement from menin; inconclusive = falling polarisation curve, or a change in total fluorescence; inactive = total fluorescence flat and polarisation flat or rising; no compound was filed as active; the % refers to the polarisation; negative = inhibition;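 note: % of control where 0% means no effect; inhibitors lower the polarisation; unlabelled MLL peptide was the positive control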
TRPV1 PAM – HTS Assay for Compounds that Act as Potentiators of the Vanilloid Receptor 1; Transient receptor potential cation channel subfamily V member 1 (Homo sapiens), Q8NER1; TRPV1-expressing cells, Fluo-8 calcium influx, capsaicin EC20 potentiation; host cell line not named in the record; control for the full effect not named in the record; AID 540277, 2011; 320,000 compounds, 0.02% hits; potentiation, % at 8.33 µM; active means potentiation above 80%; inconclusive means 30% to 80%; inactive means below 30%; note: 0% is about no effect
Target sequence (Q8NER1 whole entry, looked up): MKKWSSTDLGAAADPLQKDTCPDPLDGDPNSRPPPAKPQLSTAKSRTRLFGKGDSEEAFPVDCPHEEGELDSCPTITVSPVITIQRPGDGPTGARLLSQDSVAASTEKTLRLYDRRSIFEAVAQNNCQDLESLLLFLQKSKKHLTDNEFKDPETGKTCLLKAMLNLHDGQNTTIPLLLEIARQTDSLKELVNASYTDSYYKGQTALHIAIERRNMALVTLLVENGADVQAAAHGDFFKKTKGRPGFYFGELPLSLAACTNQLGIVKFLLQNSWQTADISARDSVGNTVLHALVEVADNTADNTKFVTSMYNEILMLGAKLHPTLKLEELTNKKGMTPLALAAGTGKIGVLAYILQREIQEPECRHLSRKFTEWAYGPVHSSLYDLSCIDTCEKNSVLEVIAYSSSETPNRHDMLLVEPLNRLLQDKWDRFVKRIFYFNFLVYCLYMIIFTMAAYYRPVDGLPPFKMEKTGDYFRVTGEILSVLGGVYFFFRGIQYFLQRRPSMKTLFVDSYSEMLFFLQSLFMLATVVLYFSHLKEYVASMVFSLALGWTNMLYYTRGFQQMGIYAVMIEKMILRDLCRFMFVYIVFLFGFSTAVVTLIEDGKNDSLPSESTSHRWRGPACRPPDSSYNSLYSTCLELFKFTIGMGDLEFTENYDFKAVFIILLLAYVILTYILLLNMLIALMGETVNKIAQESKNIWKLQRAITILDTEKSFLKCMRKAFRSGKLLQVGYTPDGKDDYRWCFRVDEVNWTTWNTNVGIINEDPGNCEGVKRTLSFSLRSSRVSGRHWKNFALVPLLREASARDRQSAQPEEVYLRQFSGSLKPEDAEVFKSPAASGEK
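Cells expressing TRPV1 were dye-loaded with Fluo-8 and read kinetically: 10 s baseline, 3 min after compound (agonist portion), then 2 min after EC20 capsaicin (allosteric enhancer portion). Calcium-bound dye fluorescence at 480/520 nm.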
* marks the source's active call; other numbers are inactive results; ? = inconclusive; · = not tested or not shown; & = joins results of further samples; [ ] = another dose, or the depositor's remark.

Compound	gsp ag	ClpP mod	Sfp inh	gsp antagonist	D2 PAM	Menin-MLL FL inh	TRPV1 PAM
CCCN(CC1CC1)C(=O)COC(=O)c1[nH]c(C)c(C(=O)OCC)c1C	?	0.2%	15%	-1%	1	2.5	5
CN(C)C(CNc1ncnc2sc3c(c12)CCCC3)c1ccco1 (stereo not given)	-4%[15.4 µM]	0.0%	-4%	-1%	-27	-3.3	-10
Cc1cccc(-c2nc(CN3CCCC(C(=O)NC4CCC(C)CC4)C3)c(C)o2)c1 (stereo not given)	5%	0.5%	-25%	-6%	-6	1.7	-4
CC1=C(C(=O)Nc2ccc(Cl)cc2)C(c2ccco2)NC(=O)N1 (stereo not given)	6%	0.5%	-14%	2%	-3	4.4	-12
O=C(Cn1c(CN2CCCCC2)nc2ccccc2c1=O)Nc1ccccc1	-6%	0.3%	10%	-20%	-1	0.8	-19
COc1ccc(-c2c(-c3ccc(OC)c(C)c3O)n[nH]c2C)cc1	-38%[inhibitor]	·	20%	?	-5	-0.1	3
CC(=O)Oc1cc(OC(C)=O)c2c(=O)c(-c3ccc4c(c3)OCCCO4)c(C)oc2c1	22%	·	-8%	-21%	-1	1.8	-19
Clc1ccc(-c2nnsc2SCc2ccccc2)cc1	-53%[inhibitor]	0.4%	-11%	2%	-6	3.4	1
O=C(CC1Nc2cccc3cccc(c23)NC1=O)Nc1ccc(F)cc1 (stereo not given)	-49%[inhibitor]	-2.2%&-7.1%	?	-17%	-1	-2.3	8
COc1ccc(NC(=O)CC23CC4CC(CC(Br)(C4)C2)C3)c(OC)c1	-48%[inhibitor]	·	-2%	9%	1	·	0
Cc1ccc2c(c1)c1c3n2CCN(C(=O)CCl)C3CCC1 (stereo not given)	-37%[inhibitor]	·	-9%	-12%	-3	1.7	-11
CC(=O)c1ccc(-n2ccnc2)cc1	11%[15.4 µM]	-0.5%	-2%	-5%	-2	2.2	-6
CSc1ncccc1C(=O)Nc1nc2ccc(S(C)(=O)=O)cc2s1	?	·	10%	-15%	-1	0.9	-6
Nc1c(C(O)(C(F)(F)F)C(F)(F)F)cc(C(O)(C(F)(F)F)C(F)(F)F)c2ccccc12	24%	-17%	34%[activator]	15%	91*	0.7	-6
CCOC(=O)c1[nH]c(C)c(C(=O)NCc2ccc(Cl)cc2)c1C	-15%	0.7%	13%	-9%	-13	0.2	-5
CC(C)(C)OC(=O)N1CCC(c2c(C(=O)N3CCN(C4CCCCC4)CC3)cnn2-c2ccccc2)CC1	-53%[inhibitor]	-0.4%	4%	-5%	-6	·	11
C/C(=N\NC(=O)c1nnn(-c2nonc2N)c1CN(C)c1ccccc1)c1ccccc1O	-7%[15.4 µM]	·	2%	?	-1	-0.1	3
COc1ccc(NC(=O)NC(c2ccccc2)c2ccccc2)c(OC)c1	-45%[inhibitor]	-0.4%	2%	2%	-15	1.9	2
Nc1nonc1-n1nnc(C(=O)N/N=C/c2ccc(OCc3ccccc3F)cc2)c1CN1CCCCC1	-44%[inhibitor]	12%	12%	?	-4	-2.1	-6
COc1cc(S(=O)(=O)N2CCOCC2)ccc1N	1%[15.4 µM]	·	9%	6%	-6	-2.0	3
COc1ccccc1-c1nnc(SCC(=O)Nc2ccc(N3CCOCC3)cc2)n1C	-23%	1.0%	·	-12%	-17	·	1
O=C(Nc1nnc(C2CC2)s1)C1CCCCN1S(=O)(=O)c1ccccc1 (stereo not given)	-9%[15.4 µM]	1.7%	0%	-8%	0	3.6	4
CC(C)CC1C(=O)N(Cc2cn(CC3CCCCC3)nn2)CCS(=O)(=O)N1Cc1ccc(-c2cccc(CO)c2)cc1 (stereo not given)	25%	-1.5%	·	·	-2	·	·
Cc1nc2ccccn2c1/C(O)=C1\C(=O)C(=O)N(CCN(C)C)C1c1cccnc1 (stereo not given)	?	-8.8%	4%	7%	-24	-15	13
C#CCOCCOCCOCCNc1nc(N2CCN(C(=O)C([C@@H](C)CC)n3cc(C(N)COC(=O)C(F)(F)F)nn3)CC2)nc(N2CCN(C(=O)[C@H](CCCCN)n3cc(C(N)[C@H](C)CC)nn3)CC2)n1 (stereo not given in full)	·	0.1%	·	7%	-6	·	·
Cc1cccc(NS(=O)(=O)c2ccc(C)c(NS(=O)(=O)c3cccs3)c2)c1	-30%[15.4 µM]	1.2%	·	-21%	-16	·	7
Cc1ccc(NC(=O)c2cc(S(=O)(=O)N3CCCCC3)ccc2N2CCOCC2)cc1F	11%	-22%	13%	-3%	-3	-0.3	22
Cc1ncc(S(=O)(=O)c2ccccc2)c(-c2ccccc2)n1	-21%	0.7%	17%	8%	-13	-1.1	4
CC[C@@]1(C(=O)OC)N[C@H](CN(C)S(=O)(=O)c2ccc(-c3ccccc3)cc2)[C@@H]2C(=O)N(Cc3ccccc3)C(=O)[C@@H]21	·	1.9%	·	-5%	-3	·	·
CCN1C(=O)c2cccc3c(NC(=O)c4ccc(S(=O)(=O)N(C)C)cc4)ccc1c23	-11%	1.3%	-9%	-13%	6	?	16
CCOc1ccc2nc(N(CCN(C)C)C(=O)/C=C/c3cccs3)sc2c1	9%	0.3%	-3%	-2%	-16	0.9	8
CCOc1ccc(CN(C(=O)c2oc3cc(C)ccc3c2C)C2CCS(=O)(=O)C2)cc1 (stereo not given)	-35%[inhibitor]	-0.8%	-2%	-25%	-12	-5.1	-9
COc1ccccc1C(=O)Oc1cc(N)n(S(=O)(=O)c2ccccc2)n1	5%	-4.8%	-20%	11%	-1	0.5	-7
COc1ccccc1C1=NC(c2ccc(F)cc2)N=C1C (stereo not given)	25%	·	4%	-10%	-6	6.5	-20
CCOC(=O)/C(N=O)=C(\O)C1CCN(C(=O)OCC)CC1	23%	-0.5%	13%	-2%	-2	1.5	-2
CN1CCN(c2nc3c(c(=O)[nH]c(=O)n3C)n2Cc2ccccc2)CC1	2%[15.4 µM]	0.6%	12%	-7%	-21	0.5	-4
Cc1csc(NC(=O)c2cc3c(C)nn(Cc4ccccc4Cl)c3s2)n1	-8%	-13%	-5%	-21%	18	13	2
CCCCN(CCCC)Cc1ccc(C(=O)NNC(=O)Nc2ccc(Cl)cc2)o1	?	·	-3%	11%	?	0.2	-4
C=CCn1c(NCc2c[nH]c3ccccc23)nc2ccccc21	24%	-3.2%	0%	3%	-34	1.3	27
C=CCOn1c(C)c(C(C)=O)c2c3nonc3ccc21	3%	?	4%	?	-4	4.0	-12
COc1ccc(S(=O)(=O)N2CCN(C)CC2)cc1C	-139%[inhibitor]	1.3%	15%	10%	-3	0.0	-10
C=CCn1c(=S)[nH]c2scc(-c3ccc(C)o3)c2c1=O	14%[15.4 µM]	·	28µM*	-15%	-3	-1.1	7
COc1ccc(NC(=O)c2ccc(NC3CC(=O)N(c4ccc(C)cc4C)C3=O)cc2)cc1 (stereo not given)	5%[15.4 µM]	·	-1%	9%	-5	2.8	-31
CC#CCN1c2ccccc2[C@]23C[C@@H](C(=O)OC)N(C(=O)c4ccco4)C2=NC(C(=O)OC)=C(C(=O)OC)[C@H]13	·	-1.7%	6%&16%	-5%	-6	-5.8[11.7 µM]	-20
OC(CN1CCN(C(c2ccccc2)c2ccccc2)CC1)c1ccc(Br)cc1 (stereo not given)	?	0.2%	5%	2%	-6	?	-3
CC(C(=O)NC(=O)NCc1ccccc1)N1C(=O)c2ccccc2C1=O (stereo not given)	?	-4.6%	21%	6%	0	2.0	3
CN(C(=O)Cn1nnc(-c2ccccc2)n1)C1CCS(=O)(=O)C1 (stereo not given)	-15%	-2.8%	·	2%	-15	·	12
CCS(=O)(=O)C(=C1NCCO1)S(=O)(=O)CC	11%	-3.9%	21%	11%	-4	-1.5	9
Cc1ccc(CN(C(=O)COc2ccc(Br)cc2)C2CCS(=O)(=O)C2)o1 (stereo not given)	-21%	0.4%	0%	-1%	4	3.1	1
Cc1ccc(C(=O)Nc2cccc(S(=O)(=O)N3CCCCC3)c2)cc1[N+](=O)[O-]	?	-0.4%	·	?	-1	·	7
Cn1cc(S(=O)(=O)Cc2ccc(F)cc2)c2ccccc21	-23%	-2.5%	18%	0%	-4	5.9	-32
COc1ccc(CCNC(=O)CSc2nnc3ccc(-c4ccncc4)nn23)cc1	?	-2.0%	12%	-7%	-5	2.2	14
O=Cc1cn(-c2ccccc2)nc1-c1cc2c(ccc3ccccc32)oc1=O	-28%	5.6µM*	-3%	-3%	-2	-0.1	5
CN1CC(=O)N(C)c2ncn(Cc3ccccc3)c2C1=O	27%	-1.5%	15%	9%	0	-3.1	-15
O=C(Cc1ccc(F)cc1)N(c1ccccc1)C1C=CS(=O)(=O)C1 (stereo not given)	4%	0.6%	8%	-1%	1	1.0	-2
O=C(COc1ccccc1)Nc1ccc(S(=O)(=O)N2CCOCC2)cc1	19%	-3.4%	17%	-1%	-5	-1.4	6
COc1cc(C(=O)NCCc2ccc3c(c2)OCCO3)ccc1OCC(=O)N1CCOCC1	-64%[inhibitor]	-5.2%	14%	-2%	7	5.8	-19
O=C(Cn1cnc2c(cnn2-c2ccc(F)cc2)c1=O)NCCc1ccccc1	29%	-12%	-3%	5%	-11	2.0	-8

Source: PubChem (National Center for Advancing Translational Sciences (NCATS))
